# MT1-MMP reporter: inhibitors of MT1-MMP promoter transcription, cell-based, luciferase reporter, luminescence (AID 618). MT1-MMP promoter luciferase reporter cells, luminescence. 0.62% of 87,000 active. calls from a first round at 10 µM; hits with a dose series show EC50 in µM;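 active = over half of the reporter light lost at 10 µM or EC50 under 50 µM; inactive = the rest and hits that failed the dose series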;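 also: actives suppress MT1-MMP promoter-driven transcription so potencies describe inhibitors; HT1080 fibrosarcoma cells; overnight exposure; toxic or luciferase-blocking compounds were not removed from the actives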
# Hsc70: Hsc70 inhibitors, probe displacement, primary screen, biochemical, fluorescence polarization (AID 568); Hsc70 fluorescence polarization, probe displacement; higher % means a stronger effect; strong numbers were not always called active; displacement, % at 20 µM; hits with a dose series show IC50 in µM; 83,000 tested, under 10 active;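 active = displacement above 50% without optical interference and an IC50 on retest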;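 also: ATPase domain with a fluorescein-tagged ATP probe; 0% = vehicle and 100% = excess ADP; read after one hour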
# WNV protease inh: inhibitors of WNV NS2B-NS3 protease, primary screen, biochemical, fluorogenic substrate. fluorogenic substrate Ex360/Em465; stronger effect = lower value. z-score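 (tested at a level between 10 and 100 µM)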. 0.18% of 65,000 active. AID 577, 2007;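 active = z-score at -3 or under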;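 also: score is relative to mean and spread of the compound wells of a plate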
# Target sequence (P06935 1371-1501 limits assumed): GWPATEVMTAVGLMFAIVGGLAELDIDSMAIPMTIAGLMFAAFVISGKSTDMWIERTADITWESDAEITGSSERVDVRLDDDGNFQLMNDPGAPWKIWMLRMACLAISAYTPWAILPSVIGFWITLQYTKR
# Target sequence (P06935 1502-1679 limits assumed): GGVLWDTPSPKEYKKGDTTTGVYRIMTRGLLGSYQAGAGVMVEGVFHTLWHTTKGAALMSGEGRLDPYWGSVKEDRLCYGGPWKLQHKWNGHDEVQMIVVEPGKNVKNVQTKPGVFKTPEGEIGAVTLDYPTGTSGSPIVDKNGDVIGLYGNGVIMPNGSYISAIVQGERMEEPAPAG
# * = called active by the depositor; i = inactive; . = not tested or not shown; + = active, no number. Compounds were not picked by outcome; any-hit rate near 0.77%.
# Second line of a record – MT1-MMP reporter	Hsc70	WNV protease inh
CCN1CCCC1CNC(=O)Cn1cc2c(n1)CCC(C)C2 (stereo unspecified)
→ i	1.0%	0.08
O=C(NCCSc1c[nH]c2ccccc12)c1ccco1
→ i	0.7%	-0.48
CSCCC(NC(N)=O)C(=O)NCc1ccccc1Cl (stereo unspecified)
→ i	5.5%	-1.3
CCOC(=O)C1(C)NC(c2ccco2)C2C(=O)N(c3ccc(C)cc3)C(=O)C21 (stereo unspecified)
→ i	-7.3%	.
CC(=O)N1CSCC1C(=O)N1CCN(c2ccc(N3CCOCC3)nn2)CC1 (stereo unspecified)
→ i	1.9%	0.89
COc1ccccc1CC(NC(C)=O)C(=O)N1CCN(C(=O)c2cccs2)CC1 (stereo unspecified)
→ i	-6.1%	.
CC(C)C(=O)Nc1cccc(-c2nc3ccccc3c(=O)o2)c1
→ i	2.5%	.
Cc1ccc(OCC(=O)Nc2oc(-c3ccccc3)c(-c3ccccc3)c2C#N)cc1
→ i	-2.3%	.
Cc1ccc(-c2cc(C(=O)Nc3ccccc3C)c3ccccc3n2)o1
→ i	1.1%	.
CCOC(=O)Nc1sc(C(=O)N(CC)CC)c(C)c1C(=O)OCC
→ i	-4.8%	0.25
Cc1ccc2c(c1)nnn2C1CCN(S(=O)(=O)c2cccc(S(=O)(=O)N(C)C)c2)CC1
→ i	-2.0%	0.16
Cn1c(=O)n(CCOc2ccccc2Cl)c2ccccc21
→ i	-0.7%	0.18
CCOC(=O)CC(=O)CSc1nc2cc(C)ccc2cc1C
→ i	1.3%	.
CC1CC(C)CN(CCCNC(=O)c2cn(C)c3ccc(S(=O)(=O)N4CCCC4)cc3c2=O)C1 (stereo unspecified)
→ i	1.2%	-0.24
COc1cccc(-n2c(=O)[nH]cc(C(=O)Nc3ccc(NC(C)=O)cc3)c2=O)c1
→ i	-0.3%	-0.05
COc1ccc(S(=O)(=O)N2CCCC(C(=O)Nc3cccnc3)C2)cc1Cl (stereo unspecified)
→ i	-0.7%	-1.2
CCOC(=O)C1=C(C)NC(=O)NC1c1ccc(OC)c(Cl)c1 (stereo unspecified)
→ i	0.0%	1.2
CC(C)c1ccc(C2C3CSCC=C3C(C#N)=C(N)C2(C#N)C#N)cc1 (stereo unspecified)
→ i	-16%	.
CN=C(Nc1ccc2c(c1)OCO2)SC1CC(=O)N(c2ccccc2)C1=O (stereo unspecified)
→ i	2.6%	-0.3
CCNC(=S)NNC(=O)c1csc(CC)c1
→ i	6.6%	.

# Next section; the last 2 above are carried over.
# Second line of a record – MT1-MMP reporter	Hsc70	WNV protease inh
CN=C(Nc1ccc2c(c1)OCO2)SC1CC(=O)N(c2ccccc2)C1=O (stereo unspecified)
→ i	2.6%	-0.3
CCNC(=S)NNC(=O)c1csc(CC)c1
→ i	6.6%	.
CC(CNS(=O)(=O)c1cc(Cl)ccc1Cl)CN(C)C (stereo unspecified)
→ i	-1.1%	-1.8
Cc1ccccc1Cn1nc(C)c(NC(=O)c2nc3n(n2)C(C(F)F)CC(C)N3)c1C (stereo unspecified)
→ i	1.2%	-0.69
COCCn1nnnc1SCC(=O)c1ccc(F)cc1
→ i	2.7%	1.8
Cc1occc1-c1nnc(SCC(=O)N2CCc3ccccc32)o1
→ i	1.2%	0.34
Cc1ccc(OCCCn2cc(C#N)c3ccccc32)cc1
→ i	9.5%	.
CN(C(=O)c1cccc(C#N)c1)c1nnc(-c2cnccn2)s1
→ i	-2.2%	2.4
CCN(CC)c1cc2nc(C)n(Cc3ccccc3)c(=O)c2cc1NC(=O)C1CC1
→ i	-2.5%	.
O=C1CCCC2=C1C(O)(C(F)(F)F)C(=O)N2Cc1ccccc1 (stereo unspecified)
→ i	-4.6%	-1.2
CCOCC(=O)Nc1ccc(F)c(F)c1
→ i	5.9%	0.02
Cc1ccc(C)c(N2C(=O)CN=C2Nc2ccccc2Cl)c1
→ i	3.8%	-0.45
COc1ccc(/C=N\NS(=O)(=O)c2ccc(C)cc2)cc1COc1ccccc1[N+](=O)[O-]
→ i	-0.5%	.
CCOc1ccc(N(CC(=O)O)S(=O)(=O)c2ccc(F)cc2)cc1
→ i	3.1%	0.98
COc1ccc(CSc2nnnn2C)cc1F
→ i	-1.3%	-0.82
CCCCN(CCCNC(=O)C1CCN(S(=O)(=O)N2CCOCC2)CC1)Cc1ccccc1
→ i	-0.9%	0.94
Cc1noc(C)c1C(=O)Nc1ccc(F)c(F)c1
→ i	5.9%	.
CC(CN1CCCCC1)OC(=O)Cc1ccc(Cl)cc1 (stereo unspecified)
→ i	-9.3%	0.04
Cc1ccc(Cn2nnc3c(=O)[nH]c(C4CCCN(S(=O)(=O)c5ccccc5)C4)nc32)cc1 (stereo unspecified)
→ i	4.6%	.
CN1C(=O)N(C)C2C1NC(=O)N2C (stereo unspecified)
→ i	-12%	0.13
Cc1cc(NC(=O)c2ccco2)ccc1NC(=O)Cc1cccs1
→ i	2.3%	.
Cc1nnc(SC2CC(=O)N(c3ccccc3)C2=O)s1 (stereo unspecified)
→ i	-0.3%	.
CC(C)C(=O)Nc1ccc(N2CCN(S(C)(=O)=O)CC2)cc1
→ i	1.2%	0.19
COc1ccccc1NC(=O)CSc1nc2ccccc2n1C(C)=O
→ i	0.8%	0.63
O=C(COc1ncnc2ccc(Br)cc12)N1CCOCC1
→ i	-3.9%	0.14
CC(C)OCCCNC(=O)C(C)Oc1ccccc1 (stereo unspecified)
→ i	2.6%	.
COc1ccc(-c2csc(NC(=O)CSc3nc(C)cs3)n2)cc1
→ i	2.7%	.
Clc1ccc(COc2ccccn2)c(Cl)c1
→ i	-5.9%	0.18
COc1ccc(CNC(C)C2COc3ccccc3O2)c(OC)c1 (stereo unspecified)
→ i	-1.5%	-1.1
Cc1ccc2[nH]c3c(=O)n(Cc4ccccn4)cnc3c2c1
→ i	5.1%	.
Cc1cc2ccccc2c(=O)n1CC(=O)NCC(=O)N1CCN(c2ccccc2)CC1
→ i	-1.2%	-0.22
COCCNC(=O)C(C)Oc1ccc(Cl)cc1Cl (stereo unspecified)
→ i	-1.6%	.
O=C(NC1CCCCC1)c1ccc(N2CCCC2=O)cc1
→ i	-1.6%	0.72
CCN(CC)c1ccc(NC(=O)Nc2cccc(C(C)=O)c2)cc1
→ i	-12%	-1.5
CCc1nnc(NC(=O)CSc2nnc(-c3cc4ccccc4cc3O)n2CCOC)s1
→ i	1.8%	-0.8
CCOc1ccc(S(=O)(=O)NCCC(=O)OCN2C(=O)c3ccccc3C2=O)cc1
→ i	10%	-0.44
COc1ccc(NC2=Nc3ccccc3N3C2=Nc2c(c(C)nn2-c2ccc(C)cc2)C3c2cccnc2)cc1 (stereo unspecified)
→ i	6.4%	.
O=C(NC(C(=O)O)c1ccccc1)c1ccc(S(=O)(=O)N2CCOCC2)cc1 (stereo unspecified)
→ i	1.4%	-1.3
COC(=O)c1cc(NCc2c(F)cccc2Cl)ccc1N1CCOCC1
→ i	0.2%	0.21
Cc1cc2nc(C)n(CCCNC(=O)Nc3cccc4ccccc34)c2cc1C
→ i	-1.6%	.
COc1cc(CNn2nnnc2N)ccc1OCC(=O)NC(C)(C)C
→ i	-3.2%	.
CC(=O)N1c2c(cc(Br)cc2S(=O)(=O)N2CCN(C(=O)c3ccco3)CC2)CC1C (stereo unspecified)
→ i	7.9%	.
O=C(Nc1ccc2c(c1)OCCO2)C1CCCN(c2ncccn2)C1 (stereo unspecified)
→ +	-5.3%	1.2
COCCNC(=O)CN1c2ccccc2CC1C (stereo unspecified)
→ i	-2.3%	-0.57
CCc1ccc(S(=O)(=O)NCCc2cn3ccccc3n2)s1
→ i	0.3%	0.59
CC(C)(Oc1ccc(-c2ccco2)cc1)C(=O)O
→ i	-5.1%	0.02
CCOc1ccc(NC(=O)C2CCCN(S(=O)(=O)c3c(C)nn(C)c3C)C2)cc1 (stereo unspecified)
→ i	-6.8%	-0.69
Cc1ccc2cc3c(nc2c1)N(Cc1ccco1)CC3
→ i	14%	-0.97
COc1cc(OC)cc(C(=O)Nc2ccccc2C(=O)N2CCCC2)c1
→ i	-3.1%	.
NC(=O)CN1CCOCCOCCOCCOCCOCC1
→ i	1.2%	.
N#CCCN1CCN(S(=O)(=O)c2ccc(C#N)cc2)CC1
→ i	-2.6%	-0.55
COC(=O)C1=C(C)C(c2ccc(OC)cc2OC)NC(=O)N1 (stereo unspecified)
→ i	-4.8%	-0.86

# (further entries)
molecule | MT1-MMP reporter | Hsc70 | WNV protease inh
Cc1ccc(NC(=S)/C(=C(\[O-])c2ccc(C)c([N+](=O)[O-])c2)[n+]2ccccc2)cc1C | i | -1.2% | .
O=C(CCCc1ccccc1)NC1CCSC1=O (stereo unspecified) | i | 4.1% | -0.36
CCOc1cc(C2/C(=C(\O)c3cc(C)ccc3C)C(=O)C(=O)N2CCN(C)C)ccc1O (stereo unspecified) | i | 0.3% | 0.18
Cc1cnc(C(=O)OCC(=O)NC2CCCC(C)C2C)cn1 (stereo unspecified) | i | -6.7% | -0.68
Cc1ccc(C(=O)N2CCCC2)cc1Br | i | -1.3% | .
CCN(CCCNC(=O)CN(C)S(=O)(=O)c1cccc2nsnc12)c1ccccc1 | i | 0.5% | -0.18
COc1cccc(NC(=O)C2CC(=O)OC23CCOC(C)(C)C3)c1 (stereo unspecified) | i | 2.3% | 0.53
COc1cccc(-c2nc(N3CCCCC3)c3ccccc3n2)c1O | i | -1.6% | 0.1
CCOC(=O)C1CCCN(S(=O)(=O)c2cccs2)C1 (stereo unspecified) | i | 8.0% | 0.16
Cc1nnc(NC(=O)Oc2ccccc2)s1 | i | 0.7% | 0.59
O=C(NCc1ccco1)c1ccc(=O)oc1 | i | -3.9% | -2.3
COc1ccc(OC)c2[nH]c(=O)c(CCNC(=O)c3cc4ccccc4o3)cc12 | i | 0.9% | -0.44
CCOc1ccc(-n2c(Cc3cc(=O)[nH]c(=O)[nH]3)nnc2SCc2cccnc2)cc1 | i | 5.1% | -1.5
O=C(CCN1C(=O)c2ccccc2C1=O)Nc1ccc(-c2cn3ccsc3n2)cc1 | i | -0.4% | -0.06
CN1C(=O)N(C)C2(CC1(C)C)CC(C)(C)N(C)C(=O)N2C | i | -2.0% | -0.27

# Part of the list above, showing only Hsc70.
canonical_smiles | Hsc70
CCOc1ccc(S(=O)(=O)NCCC(=O)OCN2C(=O)c3ccccc3C2=O)cc1 | 10%
COc1ccc(NC2=Nc3ccccc3N3C2=Nc2c(c(C)nn2-c2ccc(C)cc2)C3c2cccnc2)cc1 (stereo unspecified) | 6.4%
O=C(NC(C(=O)O)c1ccccc1)c1ccc(S(=O)(=O)N2CCOCC2)cc1 (stereo unspecified) | 1.4%
COC(=O)c1cc(NCc2c(F)cccc2Cl)ccc1N1CCOCC1 | 0.2%
Cc1cc2nc(C)n(CCCNC(=O)Nc3cccc4ccccc34)c2cc1C | -1.6%
COc1cc(CNn2nnnc2N)ccc1OCC(=O)NC(C)(C)C | -3.2%
CC(=O)N1c2c(cc(Br)cc2S(=O)(=O)N2CCN(C(=O)c3ccco3)CC2)CC1C (stereo unspecified) | 7.9%

# Remaining list, next part:
molecule | MT1-MMP reporter | Hsc70 | WNV protease inh
Cc1ccc(OCc2cc(C(=O)Nc3ccccc3)oc2C)cc1 | i | -3.6% | .
CC1CCc2c(sc3nc(C4CC4)nc(SCC(=O)NCc4ccco4)c23)C1 (stereo unspecified) | i | -9.2% | -0.34
COc1ccccc1NC(=O)c1ccccc1NC(=O)c1cc(Cl)ccc1NC(=O)c1ccco1 | i | 2.7% | .
N=c1n(CCN2CCCCC2)c2ccccc2n1CC(O)COc1ccccc1 (stereo unspecified) | i | -3.0% | -0.0057
CCCNc1ncnc2c1cnn2-c1ccc(OC)cc1 | i | 5.3% | 1.1
c1ccc(NCc2nc(-c3ccccc3)no2)cc1 | i | -0.3% | 0.64
Cn1cnc2c(sc3nc(N4CCOCC4)c4c(c32)CC(C)(C)OC4)c1=O | i | 3.9% | 1.1
CCCc1nc(N2CCN(C)CC2)c2sc(=S)n(-c3ccccc3)c2n1 | i | -1.4% | -0.85
COCCNC(=O)C(=O)Nc1ccc(Br)cc1 | i | -0.6% | .
COc1ccc(CCNC(=O)CN2C(=O)c3ccccc3S2(=O)=O)cc1 | i | -5.5% | -0.52
COc1cc(OC)cc(C(=O)N2CCN(S(C)(=O)=O)CC2)c1 | i | -1.2% | -0.58
CCOC(=O)N1CCN(c2nc(C)c3c(n2)CC(C)CC3=O)CC1 (stereo unspecified) | i | 3.9% | -0.02
COc1cccc(OCCNC(=O)c2cccc(OC)c2)c1 | i | 3.8% | 0.99
Cc1ccccc1-n1nnnc1SC1CCOC1=O (stereo unspecified) | i | 1.0% | 1.9
COCCNC(=O)c1ccc2c(c1)ncn2-c1ccc(F)c(F)c1 | i | 2.0% | 0.48
O=C(Cn1cc2c(n1)CCCC2)NCc1cccnc1 | i | 2.0% | -0.7
N/C(CSc1nc(-c2ccccc2)c(-c2ccccc2)o1)=N\O | i | 3.8% | -0.11
COc1ccc(CNc2n[nH]c(NCc3ccc(OC)c(OC)c3)n2)cc1OC | i | 1.4% | -0.07
CC1CCC(C(C)C)C(OC(=O)CSc2nnc(N)s2)C1 (stereo unspecified) | i | -7.0% | .
O=C(NCN1C(=O)C2C3C=CC(C3)C2C1=O)Nc1nncs1 (stereo unspecified) | i | 4.6% | 1
CCNC(=O)CC1C(=O)N(c2ccc(F)cc2)C(=O)N1Cc1ccc(OC)cc1 (stereo unspecified) | i | -3.9% | 1.2
CCCCN(C(=O)Nc1ccc(Cl)cc1)C1CCN(C(C)=O)CC1 | i | 1.1% | .

# Assay outcomes (PubChem)
